High-throughput results as filed in PubChem.
PK Bst: modulators of Bacillus stearothermophilus pyruvate kinase | partly purified Bacillus stearothermophilus pyruvate kinase, luminescence ATP production; ribose 5-phosphate activator present at AC10 | Potency, µM | hit rate 1.2% among 51,000 | AID 361; in the data active means potency below about 11 µM; inconclusive means mostly about 12 µM to 25 µM; inactive means weaker than that;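 the screen sought inhibitors and activators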;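 note: potency is the fitted concentration of half-maximal effect; scaled between full activation by ribose 5 phosphate and full inhibition by luteolin; about four in five hits inhibit and the cells do not say which; series up to 57 µM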
TsaE inh: YjeE (TsaE) inhibition, E. coli | P0AF67 | purified YjeE, fluorescence polarisation of a bound ADP probe | Potency, µM | hit rate 0.05% among 71,000 | AID 605; active = well fitted falling curve; inconclusive = weaker or top-dose-only fall, or a rising curve; inactive = flat or poorly fitted curve;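 note: top concentration of the series not given in the record; excess ADP was the control for the full effect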
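Purified YjeE (10 uM) with BODIPY Texas Red-labeled ADP probe (2 uM); compounds pin-transferred, 15 min at room temperature. Binding inhibition read as decreased fluorescence polarization; ADP titration as control.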
* marks the source's active call; other numbers are inactive results; i = inactive; u = inconclusive; x = not tested or not shown. An excerpt; the hit share may differ from the screen's.

compound | PK Bst | TsaE inh
CC#C[C@@]1(O)CC[C@@H]2[C@@H]3CCC4=CC(=O)CCC4=C3[C@@H](c3ccc(N(C)C)cc3)C[C@]21C | x | i
COc1ccc(OC)c(NC(=O)C2CC(=O)n3ncnc3N2)c1 (stereo not drawn) | >57 | i
O=C(CCn1cnc2ccccc2c1=O)Nc1nc2c(s1)CCCC2 | >57 | i
CCOC(=O)N1CCC(N(CCOC)C(=O)Nc2ccc(Cl)cc2)CC1 | >57 | i
CC(=O)Nc1ccc(NC(=O)CSc2nnc(C3CC3)n2C)cc1 | >57 | i
COc1cc(OC)cc(C(=O)NC2CCN(Cc3nnnn3Cc3cccs3)CC2)c1 | >57 | i
Cn1c(SCC(=O)O)nnc1C1CCCCC1 | >57 | i
CCCS(=O)(=O)N1CCCC(C(=O)N2CCN(c3ccccc3)CC2)C1 (stereo not drawn) | >57 | i

compound | PK Bst | TsaE inh
CCc1nc(SCC(=O)Nc2ccccc2C(=O)OC)n[nH]1 | >57 | i
Cc1cc(NS(=O)(=O)Cc2ccccc2)cc(C)c1OCC(=O)N1CCOCC1 | >57 | i
O=C(Cl)c1cccc([N+](=O)[O-])c1 | x | i
COC(=O)c1cc2oc(C)cc2n1CC(=O)Nc1ccc(OC)c(OC)c1OC | >57 | i
O=C(c1ccc2c(c1)C(=O)N(c1ccc(Cl)cc1)C2=O)N1CCN(c2ccccn2)CC1 | >57 | i
O=C(CN1C(=O)CCC1=O)Nc1nc(-c2nc3ccccc3s2)cs1 | x | i
CC(C)=C1SC(N2CCN(Cc3ccccc3)CC2)=NC1=O | x | i
Cc1ccc(-n2nc3ccc(N)cc3n2)cc1 | x | i

compound | PK Bst | TsaE inh
CCC(=O)OCC(=O)c1c(N)n(Cc2ccccc2)c(=O)n(C)c1=O | >57 | i
Clc1ccc2c(N3CCCC3)ccnc2c1 | >57 | i
Cc1ccc(CCn2c3c(c4ccccc42)CN(C)CC3)cn1 | x | i
COc1ccc(-c2cc(=O)oc3c(C)c(O)c(CN(C)C)cc23)cc1 | x | i
CCOC(=O)C1CCN(C(=O)CCn2c(=O)[nH]c3ccccc3c2=O)CC1 | >57 | i
COc1cc(Cl)c(C)cc1NC(=O)CSc1nnc(-c2cccnc2)n1Cc1ccco1 | >57 | i
O=C(CCC1COc2ccccc2O1)Nc1ccccn1 (stereo not drawn) | >57 | i
COc1ccc(CCN2C(=O)c3cccnc3C2=O)cc1OC | >57 | i

compound | PK Bst | TsaE inh
Cc1cccc(C)c1NC(=O)C1(N2CCN(C(=O)c3ccco3)CC2)CCCCC1 | >57 | i
O=C(c1cccs1)N1CCN(C2CCCCC2)CC1 | >57 | i
Cc1cc(C)c(NC(=O)OCCN2CCOCC2)c(C)c1 | >26 | x
COc1ccc(N2CCN(CC(=O)Nc3nnc(-c4ccccc4)s3)CC2)cc1 | >57 | i
COc1cccc(C(=O)OCCN2C(=O)c3ccccc3C2=O)c1OC | >57 | i
CCN(CC)Cc1nc2c(c(=O)[nH]1)C1(CCCCC1)Cc1ccccc1-2 | >57 | i
COC(=O)c1c(NC(C)=O)sc2c1CCCC2 | >57 | i
CCOc1ccc(Cn2nnc(C(=O)Nc3cc(C)cc(C)c3)c2N)cc1 | x | i

compound | PK Bst | TsaE inh
O=c1oc2cc(O)ccc2c2oc3cc(O)ccc3c12 | u | x
OCCCc1nc2ccccc2n1CCOc1ccccc1 | x | i
CCOC(=O)CCc1c(C)nc2cc(-c3ccccc3OC)[nH]n2c1=O | x | i
O=C1C2CCCN2C(c2ccc(F)cc2)N1c1ccc(Cl)cc1 (stereo not drawn) | x | i
CC(C)C(C)(C)C(C)(C)C(C)(C)S | x | i
Cn1c(=O)n(Cc2ccc(F)cc2)c(=O)c2c1nc1n2CCCN1C1CCCCC1 | >57 | i
O=C(c1cnccn1)N1CCC2(CCCN(Cc3nccs3)C2)CC1 | x | i
Cc1ccc(C2CC(c3cccc(Cl)c3)n3nc(N)nc3N2)cc1 (stereo not drawn) | x | i

compound | PK Bst | TsaE inh
CC1CCN(C(c2ccccc2)c2nnnn2C(C)(C)C)CC1 (stereo not drawn) | >57 | i
COc1cc(OC)cc(-c2nc3nc(C)c(CCC(=O)NCc4ccco4)c(C)n3n2)c1 | >57 | i
CCOC(=O)C1CCCN(c2nc3ccccc3nc2C(C#N)C(=O)OCC)C1 (stereo not drawn) | >57 | i
CC1C(=O)C(C)C(c2ccc3c(c2)OCO3)NC1c1ccc2c(c1)OCO2 (stereo not drawn) | >57 | i
CCOC(=O)c1oc2ccccc2c1NC(=O)c1ccc(S(=O)(=O)N(C)C)cc1 | >57 | i
c1ccc(-n2c(-c3ccncc3)nnc2-c2cccs2)cc1 | >57 | i
CCCCc1cc(=O)oc2c(CN3CCCC3)c(O)c(Cl)cc12 | >57 | i
Cc1nnc(SCCc2ccccc2)[nH]c1=O | >57 | i

compound | PK Bst | TsaE inh
O=C(COc1cccc(C(F)(F)F)c1)Nc1ccc(S(=O)(=O)N2CCCC2)cc1 | >57 | i
O=C(CS(=O)(=O)Cc1ccccc1)N1CCN(C(=O)c2ccco2)CC1 | >57 | i
N#C/C=C\Oc1ccc(Cl)cc1N | >57 | i
c1coc(-c2nc3c4c5c(sc4ncn3n2)CCCC5)c1 | >57 | i
O=C(NC1CCS(=O)(=O)C1)c1cnccn1 (stereo not drawn) | >57 | i
CCOC(=O)c1cnc(SC2CC(=O)N(c3cccc(OC)c3)C2=O)nc1N (stereo not drawn) | >26 | x
O=C(O)C[n+]1ccccc1 | x | i
CSc1ccccc1NC(=O)CN(c1cc(C)cc(C)c1)S(C)(=O)=O | u | i

compound | PK Bst | TsaE inh
CCOC(=O)N1CCN(C(=O)C(NC(=O)C2CCC(C)CC2)C(C)C)CC1 (stereo not drawn) | >57 | i
O=C(OCC(=O)N1CCc2ccccc21)c1ccccc1 | x | i
CN(C)c1cccc(C(=O)n2cc(C(=O)c3cc(F)ccc3O)cn2)c1 | >57 | i
CCN(CC)CCCN1C(=O)C(=O)/C(=C(/O)c2c(C)nc3ccccn23)C1c1ccc(C)o1 (stereo not drawn) | >57 | i
O=C1[C@@H]2[C@@H](C(=O)N1c1ccc(OCc3ccccc3)cc1)[C@@H]1c3ccccc3[C@@H]2[n+]2ccccc21 | x | i
O=C(CN1CCCC1)Nc1ccc(NC(=O)Nc2ccccc2Cl)cc1 | >57 | i
Cc1ccc(C)c(Cn2nnc3c(=O)[nH]c(C4CCCN(C(=O)C5CCCCC5)C4)nc32)c1 (stereo not drawn) | >57 | i
CC(=O)Nc1ccc(OC(=O)c2cccs2)cc1 | x | i

compound | PK Bst | TsaE inh
c1coc(CNc2c3c(nc4ccccc24)CCC3)c1 | x | i
COC(=O)C1=C(C)NC(=O)CC1c1ccc(F)c(Br)c1 (stereo not drawn) | >57 | i
Cc1cc(NC(=O)CSc2nnc(COc3ccccc3)n2Cc2ccco2)no1 | >57 | i
O=C(CSc1cc(Cl)ccc1Cl)NCC1CCCO1 (stereo not drawn) | u | i
O=C(COC(=O)c1ccccc1)NCC1CCCO1 (stereo not drawn) | >57 | i
CC(OC(=O)c1nsc(Cl)c1Cl)C(=O)NCc1cccs1 (stereo not drawn) | i | i
COC(=O)C1=C(C)N=c2s/c(=C/c3cccs3)c(=O)n2C1c1cccs1 (stereo not drawn) | >57 | i
c1ccc([P+](CC[P+](c2ccccc2)(c2ccccc2)c2ccccc2)(c2ccccc2)c2ccccc2)cc1 | x | i

compound | PK Bst | TsaE inh
CCSc1nnc(-c2cccc(S(=O)(=O)N(C)C)c2)n1-c1cc(OC)ccc1OC | >57 | i
CCCc1nc2ccccc2c(C(=O)OC2CCOC2=O)c1CC (stereo not drawn) | >57 | i
COC(=O)c1cnn(C(=O)c2cc(OC)ccc2Br)c1N | >57 | i
CNc1oc(-c2ccccc2Cl)nc1C#N | >26 | x
O=C(O)CSC12CC3CC(C1)CC(C(=O)O)(C3)C2 | >57 | i
CCc1ccc2oc(=O)cc(CN3CCOCC3)c2c1 | >57 | i
COc1cccc(C2CC(c3ccccc3C)n3nc(N)nc3N2)c1 (stereo not drawn) | x | i
COc1ccccc1Nc1nc(N)nc(CN2CCCCCC2)n1 | >57 | i

Four compounds from above, ordered by heavy-atom count, lowest first.
compound | PK Bst | TsaE inh
O=C(O)CSC12CC3CC(C1)CC(C(=O)O)(C3)C2 | >57 | i
CCc1ccc2oc(=O)cc(CN3CCOCC3)c2c1 | >57 | i
COC(=O)c1cnn(C(=O)c2cc(OC)ccc2Br)c1N | >57 | i
CCSc1nnc(-c2cccc(S(=O)(=O)N(C)C)c2)n1-c1cc(OC)ccc1OC | >57 | i

Carrying on:
compound | PK Bst | TsaE inh
Cc1cc(O)c(C=Nc2cccc(Cl)c2)c(=O)o1 | x | i
COC(=O)[C@H](C)NC(=O)Nc1ccccc1F | >57 | i
O=C(c1ccccc1)c1cc(-c2ccccc2)on1 | 1.9* | x
CC[C@@]1([N+](=O)[O-])C[C@H]2C=C[C@@H]1C2 | x | i
CCOC(=O)c1oc2ccccc2c1CSc1nnc(-c2ccco2)o1 | >57 | i
O=C(NC1CCCC1)c1cccnc1N1CCCCCC1 | >57 | i
O=C(CC(NS(=O)(=O)c1ccc(Cl)cc1)c1ccco1)NCc1cccnc1 (stereo not drawn) | x | i
Cn1c(=O)cc(OCC(=O)N2CCCc3ccccc32)c2ccccc21 | >57 | i

compound | PK Bst | TsaE inh
Cc1ccc2nc3c(c(C(=O)O)c2c1)CCC3 | >57 | i
Cn1cccc1C(=O)N1CCC2(CCCN(C(=O)Nc3ccccc3)C2)CC1 | x | i
CCN1CCN(C(=O)C2CCN(C(=O)c3cc4sccc4n3CC)CC2)CC1 | x | i
CCCNC(=O)C1CC(=O)N(c2ccc(OCC(=O)Nc3cc(C)cc(C)c3)cc2)C1 (stereo not drawn) | x | i
N#CC1=C(N)OC2=C(C(=O)CCC2)C1c1ccsc1 (stereo not drawn) | x | i
c1coc(-c2ncc[nH]2)c1 | >57 | i
CCOC(=O)Cc1csc(NC(=O)CSc2nnc(C)n2C)n1 | >57 | i
Cc1c(NC(=O)NC(=O)c2ccc(F)cc2)c(=O)n(-c2ccccc2)n1C | x | i

compound | PK Bst | TsaE inh
CCOC(=O)c1c(NC(=O)CN2CCOCC2)sc2c1CCCC2=O | x | i
Cc1ccc2[nH]c3c(NCc4ccco4)ncnc3c2c1 | i | i
COC(CCN(C)C)(c1ccccc1)c1ccccc1 | x | i
O=C(O)C(CCCCN1C(=O)c2ccccc2C1=O)N1C(=O)c2ccccc2C1=O (stereo not drawn) | x | i
COc1ccc(OC)c(NC(=O)CCN2CCN(Cc3ccccc3)CC2)c1 | >57 | i
OCCN1CCN(C(=S)c2ccc(Cl)c(Cl)c2)CC1 | x | i
CCN(CC(F)(F)C(F)F)S(=O)(=O)c1ccc(NC(=O)OC)cc1 | >57 | i
O=C(Oc1cccc2cccnc12)c1cccc(-n2cnnn2)c1 | >57 | i

compound | PK Bst | TsaE inh
COc1ccc(C2CCCN2C(=O)c2cccs2)cc1 (stereo not drawn) | >57 | i
CC(C)C(C(=O)C=[N+]=[N-])N1C(=O)c2ccccc2C1=O (stereo not drawn) | >57 | i
Cc1noc(NS(=O)(=O)c2ccc(N3CC(O)=C(c4ccccc4)C3=N)cc2)c1C | >57 | i
Cn1c(OCc2cccnc2)nc2c1c(=O)n(Cc1ccccc1)c(=O)n2C | >26 | x
Cc1cc(NC(=O)c2ccc(Br)c(S(=O)(=O)N3CCCC3)c2)no1 | >57 | i
Cn1c(CNC(=O)Nc2ccccc2Cl)nnc1SCc1ccccc1 | >57 | i
CCOC(=O)c1ccc(NCc2nc3ccccc3[nH]2)cc1 | x | i
CN1CCN(C(=O)c2ccc(CS(=O)(=O)c3c(Cl)cccc3Cl)o2)CC1 | x | i

Of the compounds above, 2 have a nitro group on carbon:
compound | PK Bst | TsaE inh
O=C(Cl)c1cccc([N+](=O)[O-])c1 | x | i
CC[C@@]1([N+](=O)[O-])C[C@H]2C=C[C@@H]1C2 | x | i

The list continues.
compound | PK Bst | TsaE inh
Cn1c(SCC(=O)NCc2ccccc2)nc2ccccc21 | u | x
Cc1ccc(S(=O)(=O)N2CCC(N3CCCCCC3)CC2)cc1 | >11 | x
O=C(Nc1ccon1)c1csc2ccccc12 | >57 | i
COc1ccc(C2=NOC(C(=O)Nc3cc(Br)ccc3O)C2)cc1OC (stereo not drawn) | >57 | i
CN1CCN(Cc2nc(N)nc(Nc3ccc4c(c3)OCCO4)n2)CC1 | >57 | i
OC[C@@H]1O[C@@H](n2cnc3c(NCCc4ccccc4)ncnc32)[C@@H](O)[C@H]1O | x | i
N#Cc1c(-c2ccc(Cl)cc2Cl)nc2n(c1=O)CCS2 | u | i
CN(C)c1ccc(-c2cncnc2NCc2ccccc2)cc1 | x | i

compound | PK Bst | TsaE inh
CC[n+]1cc(-c2ccccc2)nc(N2CCOCC2)n1 | >57 | i
CCOC(=O)C1=C(Cn2ccc(C(F)(F)F)n2)NC(=O)NC1c1ccc2c(c1)OCO2 (stereo not drawn) | >57 | i
CCOC(=O)CC1=CC(C)(CC(=O)OCC)C(C#N)(C#N)C(N)=C1C#N (stereo not drawn) | >57 | i
CC(C)(C)C(=O)Cn1c(=N)n(Cc2ccccc2)c2ccccc21 | >57 | i
CCc1nnc(SCc2ccc(CSc3nnc(CC)n3N)cc2)n1N | >57 | i
COc1ccccc1C(=O)NCCn1cc(SCC(=O)Nc2cc(C)on2)c2ccccc21 | >57 | i
Cc1[nH]n(-c2ccccc2)c(=O)c1/C=N/c1ccccn1 | >11 | i
CCOC(=O)c1[nH]c(C)c(C(=O)N(CC)CC)c1C | x | i
CCc1nn(CC(=O)N2CCN(Cc3ccc4c(c3)OCO4)CC2)c(=O)c2cc3occc3n12 | x | i
